# Screening data as filed in PubChem.
# NPYLR7 agonist – activates Aedes aegypti NPYLR7 receptor. HEK293T NPYLR7/Galpha15, GCaMP6s calcium fluorescence. activation, % at 10 µM. 270,000 compounds, 0.15% hits. AID 1259423; in the data active = activation above about 40%;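 note: 0% = vehicle and 100% = reference agonist at the receptor; some compounds past the cut are filed as inactive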
# NPYLR7 agonist max-min – recorded beside NPYLR7 agonist, whose call it bears; activation, %; measured here: Max-Min RFU normalised activation; some inactives read as strong as hits;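 span of the calcium signal over five minutes; 0% = vehicle and 100% = native peptide agonist; compound fluorescence can raise it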
# * hit, by the source's call; & = joins results of further samples. A portion of the library. The share of hits here may be higher or lower than overall.
Molecule | NPYLR7 agonist max-min | NPYLR7 agonist
CC1CCN(S(=O)(=O)c2ccc(C(=O)N3CC(C)CC(C)C3)cc2)CC1 (stereo not given) | 5.0 | 12.6
COCCNC(=O)C(NC(=O)c1ccc2c(c1)OCO2)C1CCN(S(=O)(=O)c2ccc(Cl)cc2)CC1 (stereo not given) | 4.0 | 0.5
O=C(CN1C(=O)c2ccccc2C1=O)NCCc1cccc(F)c1 | 3.3 | 0.4
CN(C)c1ccc(/C=C2/N=C(c3ccc(C(C)(C)C)cc3)OC2=O)cc1 | -1.7 | -3.0
O=C(NCCOc1cccc(F)c1)c1csc(Br)c1 | 5.7 | 10.8
CC1/C(=N\O)CC(c2ccccc2)N(C)C1c1ccccc1 (stereo not given) | 20.7 | -3.2
CC1CCCC(C)N1CCNc1ccc2c(-c3ccc(F)cc3)noc2n1 (stereo not given) | 10.7 | 18.7
COc1ccc2[nH]c(CN3CCn4cncc4C3)c(C)c2c1 | -3.8 | 0.9
O=C(Nc1ccccc1)c1ccc(S(=O)(=O)N2CCCCC2)o1 | 4.6 | 8.0
Cc1cc(NS(=O)(=O)c2ccccc2)c(C)cc1O | -0.7 | 1.2
Cn1cc(C(=O)N2CCCc3ccccc32)c2nn(-c3ccccc3)c(=O)c-2c1 | 2.9 | 3.4
O=C(NCc1ccco1)c1csc(COc2ccc(F)cc2F)n1 | 1.0 | -4.3
CCCCN(C)C(=O)c1sc(=O)n(Cc2ccccc2OC(C)=O)c1C | -0.5 | 3.9
O=C(NCCc1ccccn1)c1ccc(CSc2nc(-c3ccccc3)cc(N3CCN(c4ccccc4Cl)CC3)n2)cc1 | 28.8 | 24.7
N#Cc1ccc([C@H]2[C@@H](C(=O)O)c3ccccc3C(=O)N2Cc2ccc(F)cc2)cc1 | -5.2 | -4.2
COc1ccc(Cc2nc3c(c(=O)[nH]2)CN(C(=O)c2ccc(Cl)c(Cl)c2)CC3)cc1OC | 10.7 | 5.7
COCCN1C(=O)COCc2cc(-c3cnn(C)c3)ccc21 | 3.8 | 8.0
CC(=O)Oc1ccc(-n2c(C)cc(C=C3C(=O)NC(=S)NC3=O)c2C)cc1 | 1.7 | -2.8
CCn1nccc1C(=O)N(Cc1cccnc1)c1nc2c(C)ccc(Cl)c2s1 | 6.1 | 4.9
COc1cc(OC)nc(Nc2nc(C(N)Cc3ccc(F)cc3)cs2)n1 (stereo not given) | -12.8 | -6.1
COc1nc(C)nc2[nH]c(=O)c(C)nc12 | 3.5 | 3.6
CCOC(=O)c1cn(C(C)c2cnn(C)c2)cc(Oc2ccccc2)c1=O (stereo not given) | -4.9 | 0.7
O=C(NCc1cccs1)c1nn2c(c1Br)NC(c1cccs1)CC2C(F)(F)F (stereo not given) | -1.6 | 4.6
COc1cc2c(cc1OC)C(c1cccc(C(F)(F)F)c1)N(C(=O)c1ccccc1C(F)(F)F)CC2 (stereo not given) | 19.4 | 22.4
CC(C)Cn1nccc1NC(=O)NCc1nncn1C(C)C | -5.6 | -3.5
CCN(C(=O)CNc1ccc(Br)cc1)c1nc2ccccc2s1 | 1.2 | 5.6
COc1ccc2c(c1)CCC1C2=Nc2nnnn2C1c1ccc(N2CCOCC2)cc1 (stereo not given) | 3.6 | 3.9
Cc1c(C(=O)Nc2cccc(Oc3ccccc3)c2)sc(=O)n1Cc1ccc(F)cc1 | 3.4 | 12.0
NS(=O)(=O)c1ccc(CCC(=O)N2CCCCCC2)cc1 | -17.9 | -12.1
Cc1cccc(OCC(=O)N2CCc3c(nc(-c4ccccc4)[nH]c3=O)C2)c1C | 3.1 | 7.3
CCn1c(SCC(=O)NC(C)c2ccc3c(c2)CCCC3)nc2ccccc2c1=O (stereo not given) | -3.0 | -3.0
CCCN(CCc1c[nH]c2ccc(NC(=O)COC(C)=O)cc12)CC1CC1 | -3.7 | 4.5
CCn1cc(C(CC(=O)NCc2ccccn2)c2cccc(OC)c2)c2ccccc21 (stereo not given) | 36.5 | 36.2
COC(=O)C(NC(=O)c1cnccn1)c1cccc(C)c1 (stereo not given) | 4.1 | 12.3
C#CCOCC(O)CN(Cc1ccccc1)CC1CC(c2ccc(Cl)cc2)=NO1 (stereo not given) | -0.9 | -1.8
COc1cccc(C(=O)N2CCN(C(C(=O)NCC3CCCO3)C3CCCC3)CC2)c1 (stereo not given) | -6.5 | -4.2

# Structures shown so far that contain a CF3 group, in the order listed:
Molecule | NPYLR7 agonist max-min | NPYLR7 agonist
O=C(NCc1cccs1)c1nn2c(c1Br)NC(c1cccs1)CC2C(F)(F)F (stereo not given) | -1.6 | 4.6
COc1cc2c(cc1OC)C(c1cccc(C(F)(F)F)c1)N(C(=O)c1ccccc1C(F)(F)F)CC2 (stereo not given) | 19.4 | 22.4

# Following part:
Molecule | NPYLR7 agonist max-min | NPYLR7 agonist
CC1CN(Cc2cccc3c2OCO3)Cc2cc(Cl)ccc2O1 (stereo not given) | 2.8 | 20.0
CC1(c2ccc3c(c2)CCC3)NC(=O)N(Cc2nccs2)C1=O (stereo not given) | 1.0 | 1.8
CCOC(=O)c1cc([C@@H](C)CCC=C(C)C)sc1NC(=O)C(C)Oc1ccccc1 (stereo not given in full) | 0.2 | 5.2
COc1cc(CC(=O)N2CCC3(CC2)OCc2cc(-c4ccc(F)c(F)c4)ccc2O3)cc(OC)c1OC | -23.9 | -22.0
c1ccc(Nc2nc(NC3CCCC3)nc3nccnc23)cc1 | 4.3 | 6.7
CCC(CC)C(=O)NCCn1nc(-c2ccco2)ccc1=O | -2.7 | -1.0
Cc1ccc(NC(=O)CCC(=O)c2ccc3c(c2)CCC3)c(Cl)c1 | -1.0 | 0.3
Cc1ccc(F)c(N2C(=O)CSC2c2ccc(NC(=O)C(C)(C)CCl)cc2)c1 (stereo not given) | 6.8 | 4.3
CC(C)(C)n1nc2c(c1NC(=O)/C=C\c1ccc3c(c1)OCO3)CSC2 | -4.5 | -3.2
CC(=O)Oc1c(-c2ccc(N)cc2)c(-c2cccc(C)c2)nn1-c1ccc(C)cc1 | 25.1 | 26.3
COc1ccc(-c2cc(C(=O)O)n(-c3cc(C)ccc3C)n2)c(OC)c1 | 11.8 | 2.7
COCc1cc(C)nc(OCC(=O)N/N=C\c2cc(Cl)ccc2O)c1C#N | -11.2 | -7.5
Cc1ccc(C(CNC(=O)c2ccc3ccccc3c2O)N2CCOCC2)o1 (stereo not given) | 3.2 | 6.2
O=C1CCCc2occ(C(=O)N3[C@H]4CCNC[C@@H]3CC4)c21 | -7.9 | -4.6
O=C1NCC2(CCCN(C(=O)c3ccc(Oc4ccccc4)o3)C2)O1 (stereo not given) | 9.1 | 10.4
C=c1c(C#N)c2[nH]c(N)c(C#N)c(C)c-2/c1=C\c1ccc(-c2ccccc2C(=O)O)o1 | 11.4 | 2.0
CCN(CC1CCOCC1)C(=O)CCNC(=O)c1ccccc1F | 10.0 | 13.7
CCCCCCC(=O)Nc1c(-c2ccccc2OC)nc2cc(C)ccn12 | -10.0 | -12.5
COc1nn(C)cc1C(=O)Nc1cc(C)on1 | 1.9 | 3.5
CCCCN1CC(c2nc3ccccc3n2CCCOc2cccc(C)c2)CC1=O (stereo not given) | -0.7 | 0.2
COc1ccc(CC(=O)NCCc2cc3cc(C)c(C)cc3[nH]c2=O)cc1OC | 5.0 | 1.0
COCCCN(Cc1c(-c2ccccc2)noc1N1CCCCC1C)C(=O)c1ccccc1OC (stereo not given) | 5.1 | -4.6
O=C(C1CCC1)N1CCC2(CC1)SCCN2C(=O)c1ccc(Cl)cc1 | -0.7 | -3.2
COCCCNC(=O)c1nn(-c2ccc(C)c(C)c2)c(=O)n(Cc2cccc(OC)c2)c1=O | 16.8 | 11.7
COc1ccc(-n2[nH]c(C(C)C)c(C3=C(N(C)C4CCCCC4)C(=O)N(Cc4ccco4)C3=O)c2=O)cc1 | 9.3 | 8.7
Cc1nc2sc3c(c2c2nnnn12)CCCC3 | -1.3 | 2.5
Cc1ccc(-c2nc3cc(C)ccn3c2NC(=O)C2CCCCC2)cc1 | 4.9 | -2.8
Cc1ccc(C)c(Cc2c(C)nc(C)nc2N2CCN(C(=O)NC(C)C)CC2)c1 | -6.7 | -5.8
CC(Nc1nc2c(c(=O)[nH]c(=O)n2C)n1Cc1ccccc1)c1ccccc1 (stereo not given) | -2.4 | -0.7
CN(Cc1ccccc1)C(=O)N1CCN(C(=O)Nc2nc3ccccc3s2)CC1 | -2.0 | -2.4
COc1cc2c(cc1C)C(c1ccc(OCC(N)=O)c(Cl)c1)CC(=O)N2 (stereo not given) | 16.4 | 23.3
COCC(=O)Nc1ccc(-c2c(-c3cc(OC)cc(OC)c3)nn(-c3ccc(C)cc3)c2OC(C)=O)cc1 | 11.5 | 6.9
O=C(CC12CC3CC(CC(Br)(C3)C1)C2)NCc1cccs1 | 4.8 | -0.6
CC(C)(C)c1nnc2sc(SCC(=O)NC3CCCCC3)nn2c1=O | 1.0 | 4.0
CCOC(=O)C1(CCOc2ccccc2)CCN(Cc2nc3ccccc3s2)CC1 | -10.2&14.5 | -9.1&1.1
CC1CCCCC12NC(=O)N(CC(=O)Nc1nc3ccccc3s1)C2=O (stereo not given) | -1.2 | 0.8

# For convenience, six of the compounds above:
Molecule | NPYLR7 agonist max-min | NPYLR7 agonist
COc1ccc(-n2[nH]c(C(C)C)c(C3=C(N(C)C4CCCCC4)C(=O)N(Cc4ccco4)C3=O)c2=O)cc1 | 9.3 | 8.7
Cc1nc2sc3c(c2c2nnnn12)CCCC3 | -1.3 | 2.5
Cc1ccc(-c2nc3cc(C)ccn3c2NC(=O)C2CCCCC2)cc1 | 4.9 | -2.8
Cc1ccc(C)c(Cc2c(C)nc(C)nc2N2CCN(C(=O)NC(C)C)CC2)c1 | -6.7 | -5.8
CC(Nc1nc2c(c(=O)[nH]c(=O)n2C)n1Cc1ccccc1)c1ccccc1 (stereo not given) | -2.4 | -0.7
CN(Cc1ccccc1)C(=O)N1CCN(C(=O)Nc2nc3ccccc3s2)CC1 | -2.0 | -2.4

# (further entries)
Molecule | NPYLR7 agonist max-min | NPYLR7 agonist
COc1ccc(/C=C/C(=O)NC2CCCN(Cc3ccccn3)C2)cc1OC (stereo not given) | 10.1 | 9.6
Cc1ccc(S(=O)(=O)N(Cc2c(-c3ccccc3)noc2N2CCCCC2)CC2CCCO2)cc1 (stereo not given) | 7.4 | 6.9
O=C(CCC1CCN(Cc2cc(Cl)ccc2O)CC1)NCc1ccc(F)cc1 | 8.6&9.0 | 14.7&14.8
CCOC(=O)N1CCC(NC(=O)C2CC23CCN(C(=O)/C=C/c2ccc(F)cc2F)CC3)CC1 (stereo not given) | 4.2 | 14.0
O=C(c1c(F)c(F)cc(F)c1F)N1CCOC(COCc2ccccc2)C1 (stereo not given) | 20.3 | 25.6
Cc1nc(C)c(-c2nnc(NC(=O)CN3C(=O)CCC3=O)o2)s1 | -0.3 | 2.5
COc1ccc(OC)c(CN2CCC(N3CCC(C(=O)NC4CC4)CC3)CC2)c1 | 13.8 | 13.5
CC(C)C(=O)N1CCC1(C)C(=O)Nc1ccccc1Oc1ccccc1 (stereo not given) | -4.0 | -2.9
COc1cc(C)c(NC(=O)C2CCOCC2)cc1OC | 1.4 | 0.9
O=C1CCCC2=C1C(c1cccnc1)n1nc(SCc3ccccc3F)nc1N2 (stereo not given) | 3.0&-6.8 | 3.3&-5.8
Fc1ccc(C2(c3noc(Cc4ccc5c(c4)OCO5)n3)CCOC2)cc1 (stereo not given) | 12.8 | 22.5
CC(=O)NC(C)(c1ccccc1)c1nc(-c2cnc3ccccc3c2)cs1 (stereo not given) | 1.3 | 3.5
CC(C)(C)c1cc(NC(=O)CNc2ccc3c4c(cccc24)CC3)on1 | 2.2 | 4.5
CCc1ccccc1NC(=O)COc1cc(C)nc(N2CCc3ccccc3C2)n1 | 5.5 | 3.2
COCCN1C(=O)NC(c2ccc([N+](=O)[O-])cc2)C(C(=O)OC)=C1C (stereo not given) | 8.9 | 17.1

# Quoted at random: 2 records from the list, in no set order.
Molecule | NPYLR7 agonist max-min | NPYLR7 agonist
Fc1ccc(C2(c3noc(Cc4ccc5c(c4)OCO5)n3)CCOC2)cc1 (stereo not given) | 12.8 | 22.5
O=C1CCCC2=C1C(c1cccnc1)n1nc(SCc3ccccc3F)nc1N2 (stereo not given) | 3.0&-6.8 | 3.3&-5.8
